Methyltransferases: Primary Screen for Target Class Profiling of Small Molecule Inhibitors of Methyltransferases; hit rate 3.9% among 25,000; calls only at 40 µM; AID 1745853, 2022; purified enzyme, MTase-Glo SAH luminescence; active compounds read low; active = -50% or lower on at least one of six enzymes; inconclusive = the cases between; inactive = as a rule above -30% on all six;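 also: enzymes were COMT GAMT GNMT HNMT NNMT and PNMT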
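Each enzyme was reacted with SAM and its substrate, with compounds tested once at 40 uM; SAH formed was read by MTase-Glo luminescence.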
Calls only; i = inactive; ? = inconclusive; + = active, no number. % is scaled to controls: 0 for no effect and ±100 for the full control effect.

| SMILES | Methyltransferases |
| --- | --- |
| Cc1ccc(-c2nnc3n(Cc4ccc(F)cc4)c(=O)c4ccccc4n23)cc1 | i |
| CCCC1c2cccn2CCN1C(=O)Nc1cc(Cl)c(OC)cc1OC (stereo not drawn) | ? |
| CN1CCc2cc(Nc3ncc(C4CC4)c(NCCCNC(=O)C4CCC4)n3)ccc2C1 | ? |
| O=C(CCc1nnc2n(Cc3ccccc3Cl)c(=O)c3ccccc3n12)N1CC=C(c2ccccc2)CC1 | i |
| C=CCn1c(=O)c2ccc(C(=O)NC(C)C)cc2n2c(=O)n(CC(=O)Nc3ccccc3)nc12 | i |
| CNC(=O)[C@@H]1CN(S(=O)(=O)c2cccnc2)C[C@H]1C1CCN(C)CC1 | i |
| CC1CCC(NC(=O)C2(C)Cn3c(cc4occc43)C(=O)N2CCCN2CCCCC2C)CC1 (stereo not drawn) | i |
| CN1CCN(CCCN2C(=O)c3cc4occc4n3CC2(C)C(=O)NC2CCCCCCC2)CC1 (stereo not drawn) | i |
| CC(C)c1ccc(N2C(=O)c3cc4sccc4n3CC2(C)C(=O)NC2CCCCCC2)cc1 (stereo not drawn) | i |
| COc1ccccc1CN1C(=O)c2cc3ccccc3n2CC1(C)C(=O)NC1CCCCC1 (stereo not drawn) | i |
| COCCN1C(=O)c2cc3sccc3n2CC1(C)C(=O)NC1CCCCCCC1 (stereo not drawn) | i |
| COc1ccc(OC)c2c1cc1n2CC(C)(C(=O)NC2CCCCC2)N(Cc2cccnc2)C1=O (stereo not drawn) | + |
| Cn1ncc(N2CCCC(CC(=O)O)C2)cc1=O (stereo not drawn) | i |
| C=CC(C)(C)c1[nH]c2ccccc2c1C[C@@H]1NC(=O)[C@H](Cc2c[nH]c3ccccc23)NC1=O | i |
| Nc1cc(Cl)c(NC2=NCCN2)c(Cl)c1 | i |
| COC(=O)CCNC(=O)C1CN(S(=O)(=O)c2cccs2)CC12CCCCC2 (stereo not drawn) | i |
| CC1(C(=O)NC2CCCCCC2)Cn2nc(C3CC3)cc2C(=O)N1Cc1ccccc1Cl (stereo not drawn) | i |
| COc1ccc(S(=O)(=O)N2CCC(OC3CCN(C)CC3)CC2)cc1 | i |
| COC(=O)c1cc(COc2cc3oc(=O)cc(-c4ccccc4)c3cc2Cl)c(C)o1 | i |
| COCC1OC(n2cnc3c(=O)[nH]cnc32)C(O)C1O (stereo not drawn) | i |
| COc1cc2c(cc1OC)N1C(=O)C[C@]34C=CCN5CC[C@@H]2[C@@H](CC3)[C@]514 | + |
| CCCSCCCN1C(=O)c2cc3sccc3n2CC1(C)C(=O)NC1CCCCC1 (stereo not drawn) | i |
| Cc1ccc(CNC(=O)CSc2nnc3n(CC(C)C)c(=O)c4cc(F)ccc4n23)cc1 | i |
| Cn1c(=O)n(C)c2cc(S(=O)(=O)N(Cc3ccccc3)C(=O)c3cccs3)ccc21 | i |
| CN(C)CC(c1ccc(O)cc1)C1(O)CCCCC1 (stereo not drawn) | i |
| CCC(C)Nc1nc2c(S(=O)(=O)c3ccc(C(C)C)cc3)nnn2c2ccccc12 (stereo not drawn) | i |
| CC(=O)N1CCCN(Cc2ccc3c(c2)OCO3)c2ccccc21 | i |
| Cc1cc(C)cc(Nc2nc(C)cc3nn(CC(=O)Nc4cccc(Cl)c4)c(=O)n23)c1 | i |
| CCc1ccc(-c2cc3n(n2)CC(C)(C(=O)NC2CCCCC2)N(CCN2CCOCC2)C3=O)cc1 (stereo not drawn) | i |
| Nc1nc2c(c(N3CCNCC3)n1)CCC1=C2[C@@H]2CCCC[C@@H]2O1 | i |
| C=C[C@]1(C)C[C@H](O)[C@@H]2[C@H](OC(=O)[C@@H]2C)C1/C(C)=C/O[C@@H]1O[C@H](CO)[C@@H](O)[C@H](O)[C@H]1O (stereo partly drawn) | i |
| CC1(C(=O)NC2CCCCCCC2)Cn2c(ccc2-c2ccccc2)C(=O)N1CCC1=CCCCC1 (stereo not drawn) | i |
| Cc1ccc(Cn2c(=O)c3ccccc3n3c(CCC(=O)NCCc4ccccc4)nnc23)cc1 | i |
| O=C1OC[C@@H]2CCN(Cc3ccc(C(F)(F)F)cc3)Cc3ccc(F)cc3N12 | i |
| CCOc1ccc(CNC(=O)Cn2ccc3cc(S(=O)(=O)N4CCC(C)CC4)ccc32)cc1 | i |
| CC(C)Cn1c(=O)c2ccc(Cl)cc2n2c(SCC(=O)Nc3ccc4c(c3)OCO4)nnc12 | i |
| CCCn1c(=O)c2ccc(C(=O)NC3CCCCC3)cc2n2c(SCC(=O)NC3CCCC3)nnc12 | i |
| CC(=O)Nc1c2n(c3ccc(F)cc13)CC(C)(C(=O)NCCC(C)C)N(Cc1ccccc1F)C2=O (stereo not drawn) | i |
| C1CC2(CCN1)CC(OCC1CC1)CCO2 (stereo not drawn) | i |
| O=S(=O)(c1ccc(F)cc1)N1CCCC(CN2CCOCC2)CC1 (stereo not drawn) | i |
| Nc1ncnc2c1ncn2[C@H]1CCCO1 | i |
| CCOC(=O)c1cc2n(n1)CC(C)(C(=O)NC1CCCC1)N(c1ccccc1OC)C2=O (stereo not drawn) | i |
| CCCn1c(=O)c2cc(F)ccc2n2c(SCC(=O)Nc3ccc(Cl)cc3)nnc12 | i |
| Cc1ccc(NC(=O)Cn2c(=O)oc3cc(S(=O)(=O)NCc4ccccc4)ccc32)cc1 | i |
| CC(C)OCCCn1c(=O)c2ccccc2n2c(SCc3cccc(Cl)c3)nnc12 | i |
| CCc1cccc(NC(=O)c2cc3n(n2)CC(C)(C(=O)NC2CCCC2)N(CC)C3=O)c1 (stereo not drawn) | i |
| O=C(Cc1ccsc1)N1CCC2(CC1)N=C(c1cccc(Br)c1)NO2 | i |
| CC(C)(C)CC(C)(C)c1ccc(OCCOCC[N+](C)(C)Cc2ccccc2)cc1 | + |
| CC(=O)c1ccc(C(=O)N[C@H]2COC[C@H]2Cc2cc(C)no2)s1 | i |
| CCCCNC(=O)CCn1ccc2cc(S(=O)(=O)N3CCCC3)ccc21 | i |
| CCCN1C(=O)c2cc(C(=O)NCc3ccccc3)nn2CC1(C)C(=O)NC1CCCC1 (stereo not drawn) | i |
| O=C(Cn1c(=O)oc2cc(S(=O)(=O)N3CCCC3)ccc21)N1CCC(Cc2ccccc2)CC1 | i |
| CCc1nnc(CN2CCC(C(=O)Nc3cccc(-c4ccco4)c3)CC2)o1 | i |
| CN1CC2(CCOC2)N(C2CCN(C(=O)C3CCCC3)CC2)C1=O (stereo not drawn) | i |
| CCOC(=O)c1cc2n(n1)CC(C)(C(=O)NC1CCCCC1)N(CCCc1ccccc1)C2=O (stereo not drawn) | i |
| COCC(=O)N[C@@H]1CN(Cc2cn(C)nc2C)C[C@H]1CO | i |
| CC(C)OCCCN1C(=O)c2nc3ccccc3n2CC1(C)C(=O)NC1CCCCCC1 (stereo not drawn) | i |
| Cc1cnc(-c2ccncc2)n1CCN | i |
| Cc1ccc(CN2CC(Oc3ccccc3C(=O)NCc3ccccc3)C2)o1 | i |
| O=C(CCc1nnc2n(Cc3ccccc3)c(=O)c3ccccc3n12)NCCN1CCOCC1 | i |

(more compounds)
| smiles | Methyltransferases |
| --- | --- |
| C[C@@H](NC(=O)[C@H](O)c1cc(F)cc(F)c1)C(=O)N[C@@H]1C(=O)N(C)c2ccccc2-c2ccccc21 | ? |
| COc1ccc(-c2cc3n(n2)CC(C)(C(=O)NCc2ccccc2OC)N(c2cccc(Cl)c2C)C3=O)cc1 (stereo not drawn) | i |
| CC1(C)CC[C@]2(C(=O)O)CC[C@]3(C)C(=CCC4[C@@]5(C)C[C@@H](O)[C@H](O)C(C)(C)C5CC[C@]43C)[C@@H]2[C@@H]1O (stereo partly drawn) | i |
| CCCCCNc1nc2c(-c3ccc(C)cc3)nnn2c2ccccc12 | i |
| CC1(C(=O)NC2CCCCCCC2)Cn2c(cc3occc32)C(=O)N1C1CCCCCC1 (stereo not drawn) | i |
| CCC[C@@H]1C[C@@H](C(=O)N[C@@H]([C@H]2O[C@H](SC)[C@H](OP(=O)(O)O)[C@@H](O)[C@H]2O)[C@H](C)Cl)N(C)C1 | i |
| CCCn1cc(NC(=O)C[C@H]2NC(=O)c3ccccc3NC2=O)c(C)n1 | i |
| COc1ccc(CNC(=O)c2cc3c(s2)CN(C2CC2)C3)cc1OC | i |
| CCN1CC(c2ccccc2)CC2(CCN(C(=O)c3ccon3)CC2)C1 (stereo not drawn) | i |
| CC1CCC(NC(=O)C2(C)Cn3c(nc4ccccc43)C(=O)N2Cc2ccccc2Cl)CC1 (stereo not drawn) | i |
| CC(C)CC(=O)OC[C@H]1O[C@@](COC(=O)CC(C)C)(O[C@H]2O[C@H](CO)[C@@H](O)[C@H](O)[C@H]2O)[C@@H](OC(=O)CC(C)C)[C@@H]1OC(=O)CC(C)C | i |
| Cc1[nH]cnc1-c1nccn1CC(CO)Cc1cccs1 (stereo not drawn) | i |
| Cc1c(C(C)NC(=O)c2ccc(=O)[nH]c2)cnn1-c1cccc2ccccc12 (stereo not drawn) | i |
| O=C(Cn1ccc2cc(S(=O)(=O)N3CCCCC3)ccc21)NCCc1ccccc1 | i |
| CCCCS(=O)(=O)NC1CCc2nn(CC3CC3)c(=O)n2CC1 (stereo not drawn) | i |
| COc1ccc(OC)c(NC(=O)N2Cc3c(sc4c3CCCC4)-n3cccc3C2c2ccc(F)cc2)c1 (stereo not drawn) | i |
| CC(=O)N1CCC(Cc2ccc(CN(C(=O)CCc3ccccc3)C3CC3)cc2)CC1 | i |
| CC(C)Cn1c(=O)c2ccc(C(=O)NC3CCCC3)cc2n2c(SCC(N)=O)nnc12 | i |
| CC(C)Cn1c(=O)c2ccc(C(=O)NC(C)C)cc2n2c(=O)n(CC(=O)NC3CCCCC3)nc12 | i |
| Cc1ccc(-c2nnn3c2nc(NCCc2c[nH]c4ccccc24)c2ccccc23)cc1 | i |
| CCCCCCCC/C=C\CCCCCCCC(=O)NCCO | i |
| C[C@H](Nc1cc2c(-c3ccc4c(c3)OCO4)noc2cn1)c1ccccc1 | + |
| CC(CCc1ccccc1)NC(=O)CCn1ccc2cc(S(=O)(=O)N3CCCC3)ccc21 (stereo not drawn) | i |
| CN1C(=O)CCCCC1C(=O)NCC1CCCCC1 (stereo not drawn) | i |

Brought forward from above: four compounds, followed by the next part.
| smiles | Methyltransferases |
| --- | --- |
| CCCCCCCC/C=C\CCCCCCCC(=O)NCCO | i |
| C[C@H](Nc1cc2c(-c3ccc4c(c3)OCO4)noc2cn1)c1ccccc1 | + |
| CC(CCc1ccccc1)NC(=O)CCn1ccc2cc(S(=O)(=O)N3CCCC3)ccc21 (stereo not drawn) | i |
| CN1C(=O)CCCCC1C(=O)NCC1CCCCC1 (stereo not drawn) | i |
| CC1C(OC(=O)c2ccccc2)C(O)C2C(C(=O)O)=COC(OC3OC(CO)C(O)C(O)C3O)C12 (stereo not drawn) | i |
| CCCN1C(=O)c2cc(C(=O)N3CCN(C)CC3)nn2CC1(C)C(=O)NC1CCCC1 (stereo not drawn) | i |
| O=[N+]([O-])c1cccc2c(Br)[nH]nc12 | + |
| CCCC1c2ccc(C)n2CCN1C(=O)NCC1CCC(C(=O)OCC)CC1 (stereo not drawn) | i |
| CCCn1c(=O)c2ccc(C(=O)NC(C)C)cc2n2c(SCC(=O)Nc3cc(F)ccc3F)nnc12 | i |
| O=C(/C=C/c1ccc(O)c(O)c1)O[C@H]1[C@@H]2C=CO[C@@H](O[C@@H]3O[C@H](CO)[C@@H](O)[C@H](O)[C@H]3O)[C@@H]2[C@@]2(CO)O[C@@H]12 | i |
| CC(C)N(CCCCOCC(=O)NS(C)(=O)=O)c1cnc(-c2ccccc2)c(-c2ccccc2)n1 | i |
| Cc1ccc(N2C(=O)c3cc(-c4ccco4)nn3CC2(C)C(=O)NC2CCCCCC2)c(C)c1 (stereo not drawn) | i |
| NC(=O)[C@@H](CCC(F)(F)F)N(Cc1ccc(-c2ncon2)cc1F)S(=O)(=O)c1ccc(Cl)cc1 | ? |
| Cc1cc(C)cc(N2CCN(c3cc(C4CC(O)C4)ncn3)CC2=O)c1 (stereo not drawn) | i |
| CC1(C(=O)NCc2ccccc2Cl)Cn2cnc(C(=O)NCCN3CCOCC3)c2C(=O)N1C1CC1 (stereo not drawn) | i |
| O=c1[nH]cnc2c1ncn2[C@H]1CC[C@@H](CO)O1 | ? |
| Cc1ccc(Cn2c(=O)c3ccccc3n3c(-c4ccc(F)cc4)nnc23)cc1 | i |
| O=C(Cn1ccn2nc(-c3ccc(F)cc3)c(CO)c2c1=O)Nc1ccc(F)cc1F | i |
| CC1(C)CN(C(=O)COc2ccccc2)CC(=O)N(Cc2ccccc2)C1 | i |
| COc1ccccc1CNC(=O)C1(C)Cn2nc(-c3ccccc3)cc2C(=O)N1CCC1=CCCCC1 (stereo not drawn) | i |

2 entries from above, with each value named.
> Cc1ccc(-c2nnc3n(Cc4ccc(F)cc4)c(=O)c4ccccc4n23)cc1
  Methyltransferases: i
> O=C(Cn1c(=O)oc2cc(S(=O)(=O)N3CCCC3)ccc21)N1CCC(Cc2ccccc2)CC1
  Methyltransferases: i

Reformatted field by field: entries from further up
CC1(C(=O)NCc2ccccc2Cl)Cn2cnc(C(=O)NCCN3CCOCC3)c2C(=O)N1C1CC1 (stereo not drawn)
- Methyltransferases: i
O=c1[nH]cnc2c1ncn2[C@H]1CC[C@@H](CO)O1
- Methyltransferases: ?
Cc1ccc(Cn2c(=O)c3ccccc3n3c(-c4ccc(F)cc4)nnc23)cc1
- Methyltransferases: i
O=C(Cn1ccn2nc(-c3ccc(F)cc3)c(CO)c2c1=O)Nc1ccc(F)cc1F
- Methyltransferases: i

Additional structures follow:
| smiles | Methyltransferases |
| --- | --- |
| CCCn1c(=O)c2ccc(C(=O)NC3CCCCC3)cc2n2c(=O)n(Cc3ccccc3C)nc12 | i |
| CC(C)[C@@H](C)/C=C/[C@@H](C)[C@H]1CC[C@H]2C3=CC=C4C[C@@H](O)CC[C@]4(C)[C@H]3CC[C@]12C | i |
| COC(=O)c1ncn2c1C(=O)N(CC(C)c1ccccc1)C(C)(C(=O)NC1CCCCCC1)C2 (stereo not drawn) | i |
| COc1ccccc1CN1C(=O)c2ccc(-c3ccco3)n2CC1(C)C(=O)NC1CCCCCCC1 (stereo not drawn) | i |
| Cc1ccccc1Cn1nc2n(CCC(C)C)c(=O)c3ccc(C(=O)NC(C)C)cc3n2c1=O | i |

Compound activity: PubChem BioAssay, National Center for Advancing Translational Sciences (NCATS)

A portion of the library; count on the stated rates, not on these rows.
